# Assay outcomes: PubChem BioAssay, National Center for Advancing Translational Sciences (NCATS)
# D2 ag = activates the human D2 dopamine receptor; actives 0.084% (n = 360,000); activation, % (concentration not given with the values); DiscoveRx PathHunter D2 beta-arrestin, luminescence, 90 min; 100% = 57 uM dopamine signal; P14416; in the data active = activation above about 40%; inconclusive = about 15% to 40%; inactive = below about 15%; also: compound concentration not given in the record; the text of the record calls up to 30% inactive
# Target sequence (P14416 whole entry, looked up): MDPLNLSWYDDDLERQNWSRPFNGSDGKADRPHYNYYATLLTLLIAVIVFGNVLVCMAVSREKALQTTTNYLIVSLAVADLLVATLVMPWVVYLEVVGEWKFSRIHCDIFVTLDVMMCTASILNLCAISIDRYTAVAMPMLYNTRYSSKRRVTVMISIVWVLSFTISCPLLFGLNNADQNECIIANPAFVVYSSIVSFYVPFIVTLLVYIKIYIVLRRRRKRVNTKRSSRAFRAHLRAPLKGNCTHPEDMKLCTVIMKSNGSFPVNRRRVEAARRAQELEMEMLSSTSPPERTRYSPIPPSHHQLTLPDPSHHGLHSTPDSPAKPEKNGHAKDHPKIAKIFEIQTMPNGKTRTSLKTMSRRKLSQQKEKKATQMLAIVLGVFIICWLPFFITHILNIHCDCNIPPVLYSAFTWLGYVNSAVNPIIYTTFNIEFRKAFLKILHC
#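 DiscoveRx PathHunter D2 beta-arrestin cells (2,100/well) attached overnight, then compound-stimulated 90 min at 37 C in HBSS/10 mM HEPES/0.1% Tween-20 buffer; beta-galactosidase complementation read by luminescence after 1 h at ambient temperature. Dopamine 57 uM final (EC100) as control.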
# PINK1 modulator = changes PINK1 expression. PINK1 immunofluorescence, high-content cytometry, 24 h. Potency, µM (top dose mostly 76.6 µM), for the others: at the highest dose activation (PINK1 increase), actives largely listed as activators. actives 0.2% (n = 410,000). AID 624263; active = well fitted activation curve with a large enough effect; inconclusive = small, poorly fitted or top-dose-only effect; inactive = flat fitted curve, though single readings scatter; cell line not stated here;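 also: potency is read from the fitted curve at half-maximal effect; % of control where 0% means no effect; nearly all actives have a fitted effect of over 65% in size; a mitochondrial uncoupler was the plate control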
#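 Compound titrations (5 concentrations, 24 h) on a stable cell line; DMSO and CCCP controls. Endpoint: fixed-cell PINK1 immunofluorescence with mitochondrial, cell and nuclear markers, scanned by microplate cytometer.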
# CtBP-E1A blk = blocks the CtBP interaction with E1A | AlphaScreen GST-E1A/His-CtBP binding, 1536-well; hits give low values; control for the full effect not named in the record | activity change, % (no concentration beside the values) | actives 0.49% (n = 340,000); in the data active means activity change below about -65%; inconclusive means about -30% to -65%; inactive means above about -30%; also: % is scaled to controls: 0 for no effect and ±100 for the full control effect; compound concentration not given in the record
#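 Homogeneous bead-based format: GST-tagged E1A captured on glutathione donor beads, His-tagged CtBP on nickel acceptor beads; compounds precede bead addition by 2 h at 37 °C.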
# TRPML1 ag = activates the human TRPML1 channel. TRPML1-expressing cells, Ca2+ dye fluorescence, FDSS; host cell line not named in the record; reference of the full effect not given here. AID 624414. activation, % (no concentration beside the values). actives 0.12% (n = 410,000); in the data active = activation above about 50%; inconclusive = about 30% to 50%; inactive = below about 30%; also: 0% is about no effect; the text of the record puts the active cut at 80%
# Target sequence (Q9GZU1 whole entry, looked up): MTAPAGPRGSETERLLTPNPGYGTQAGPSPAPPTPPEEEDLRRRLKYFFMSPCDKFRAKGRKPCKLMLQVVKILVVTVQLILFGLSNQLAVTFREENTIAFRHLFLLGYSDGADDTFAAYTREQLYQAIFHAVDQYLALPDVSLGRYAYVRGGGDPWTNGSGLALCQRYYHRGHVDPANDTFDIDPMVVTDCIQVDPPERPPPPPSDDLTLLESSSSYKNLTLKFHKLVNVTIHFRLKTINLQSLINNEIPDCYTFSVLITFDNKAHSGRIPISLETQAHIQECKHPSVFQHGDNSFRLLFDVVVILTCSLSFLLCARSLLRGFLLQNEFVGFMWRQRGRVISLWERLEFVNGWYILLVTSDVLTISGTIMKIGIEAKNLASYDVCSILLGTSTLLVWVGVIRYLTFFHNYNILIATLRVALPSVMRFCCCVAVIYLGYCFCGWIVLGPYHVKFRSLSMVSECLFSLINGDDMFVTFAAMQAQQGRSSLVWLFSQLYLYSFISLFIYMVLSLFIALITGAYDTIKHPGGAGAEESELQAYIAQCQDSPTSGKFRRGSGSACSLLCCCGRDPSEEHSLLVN
#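 Tet-induced TRPML1-DL cells, 1,500 per well, cultured overnight, were loaded with a no-wash Ca2+ dye for 45–90 min. Calcium fluorescence was recorded on the FDSS for 110 s after compound addition, before the EC80 agonist (4 uM 54-4) was added.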
# D2 potentiator = potentiates the human D2 dopamine receptor allosterically. actives 0.23% (n = 360,000). DiscoveRx D2 beta-arrestin cells, luminescence, 90 min; 100% = 57 uM dopamine signal. potentiation, % (concentration not given with the values). AID 624464; active = potentiation of 50% or more; inconclusive = 30% to 50%; inactive = 30% or less;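 also: compound concentration not given in the record; tested on top of an EC20 dose of dopamine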
#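 D2 cells co-treated with compound plus 50 nM dopamine (EC20) for 90 min at 37 deg C to detect potentiation. Beta-arrestin recruitment was read as enzyme-fragment luminescence after 1 h at ambient temperature. Full response was set by 57 uM dopamine.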
# Six1-Eya2 inh = inhibitors of human Six1/Eya2 interaction | AID 651725 | AlphaScreen GST-Six1/His-Eya2 binding, biochemical; hits give low values; control for the full effect not named in the record | activity change, % (concentration not given with the values) | actives 0.56% (n = 360,000); in the data active = activity change below about -65%; inconclusive = about -30% to -65%; inactive = above about -30%; also: % is scaled to controls: 0 for no effect and ±100 for the full control effect
#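 GST-Six1 + His-Eya2 (5X stock: 250/500 nM); Tris pH 8.0, 300 mM NaCl, 0.05% BSA, 0.02% Tween 20; GSH donor/Ni acceptor beads; 1 h 37 °C dark; AlphaScreen readout.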
# Numbers without * were called inactive; ? = inconclusive; / = no result given; & = joins results of further samples; [ ] = another dose, or the depositor's remark.
SMILES	D2 ag	PINK1 modulator	CtBP-E1A blk	TRPML1 ag	D2 potentiator	Six1-Eya2 inh
COc1cccc(Nc2nc(-c3sc(C)nc3C)cs2)c1	-2.2	5.7%	/	2.6	-18	-13
CCOc1ccccc1CNS(=O)(=O)c1ccc(-c2cnc(C3CC3)o2)cc1	2.6	-0.4%&3.1%	/	2.4&0.9	-8	-5
Nc1cccc(C(=O)Nc2ccc(N)cc2Cl)c1	-0.2	8.4%[38.3 µM]	2	0.3	-1	2
O=[N+]([O-])c1ccc(S(=O)(=O)N2CCN=C2SCc2cccnc2)cc1	-0.6	-1.7%	-3	-0.4	28	3
CC(=O)Nc1ccc(S(=O)(=O)NNC(=O)COc2ccc(C)cc2)cc1	0.6	-1.3%	-5	0.7	-4	10
COc1cc(S(=O)(=O)N(Cc2ccccn2)Cc2ccccc2Cl)ccc1-n1cnnn1	-1.6	-0.1%[38.3 µM]	3	2.8	-3	0
CC(C)CCNC(=O)Cc1ccccc1[N+](=O)[O-]	-2.1	3.1%[38.3 µM]	12	0.1	-10	1
CC1(C)CN=C(c2ccccc2)NC1	-5.0	-1.2%	7	-0.7	1	10
COc1ccc2oc(C)c(C(N)=O)c2c1	-2.7	6.1%[38.3 µM]	2	0.0	-12	1
Cn1c(/C=C/c2ccc(Cl)cc2)c([N+](=O)[O-])c(=O)n(C)c1=O	-2.7	-3.8%	?	1.5	-4	-7
Cc1ccccc1-n1nc2c(c1NC(=O)c1ccc3c(c1)OCO3)CS(=O)(=O)C2	-1.2	-1.8%	4	0.0	30	1
O=C(CN1C(=O)C2CC=CCC2C1=O)Nc1nnc(SCc2ccc(F)cc2)s1 (stereo not given)	1.7	-0.3%	-2	0.2	-5	3
O=C(COC(=O)c1ccco1)Nc1nc2ccc([N+](=O)[O-])cc2s1	-6.5	-0.3%	/	-0.9	-13	-4
Cc1cccc2c(=O)c(C(=O)NCc3cccs3)c[nH]c12	2.3	/	4	0.4	-2	1
Cc1nc(C)n(CCNC(=O)c2ccco2)n1	-4.4	1.2%	/	-0.1	-21	25
CCOC(=O)c1sc2nc(C)nc(SCC(=O)NC(C)CCc3ccccc3)c2c1C (stereo not given)	-1.0	-2.1%	-17	0.3	-4	-1
COc1ccc(CN2CCNC(=O)C2CC(=O)NCCSc2nccn2C)c(OC)c1 (stereo not given)	0.3	-0.1%	5	0.2	-2	1
CN(C(=O)COC(=O)c1ccc(S(=O)(=O)N2CCOCC2)cc1)c1ccccc1	-2.9	0.7%	-3	0.2	-4	-7
O=c1cc(-c2ccccc2)nc(SCc2ccc(F)cc2)[nH]1	-1.6	-1.9%	-7	0.0	-9	2
C[C@H](CO)N1C[C@H](C)[C@@H](CN(C)C(=O)NC2CCCCC2)Oc2ccc(NS(C)(=O)=O)cc2C1=O	-1.7	0.2%	0	0.0	-7	5
CCOC(=O)c1cc2sc(C)cc2n1CC(=O)N1CCc2ccccc21	2.3	/	13	0.8	-1	3
CC(=O)C(CC(=O)N1CCCc2ccccc21)C(=O)Nc1ccc(F)cc1 (stereo not given)	-4.0	-2.0%	2	2.7	-21	-1
Cn1cc(S(=O)(=O)N2CCCC2)cc1C(=O)NCc1ccc(F)cc1	-2.3	-1.1%	-2	0.4	-7	-2
O=S(=O)(Nc1ccon1)c1ccc(F)c(F)c1	1.9	0.0%	5	-0.3	13	8
Cc1ccc(C(=O)C2=C(O)C(=O)N(c3ncccn3)C2c2ccc(F)cc2)o1 (stereo not given)	-7.6	0.0%	-4	0.3	-3	-1
COc1cccc(/C=C2\Oc3cc(OCC(=O)N4CCCCC4)ccc3C2=O)c1OC	5.8	17%	-12	0.7	6	-2
COc1cc(OC)nc(C(NC(=O)C2CCN(Cc3c[nH]c4ccccc34)CC2)c2ccc(Cl)cc2)n1 (stereo not given)	-4.4	-1.3%	-22	0.9	-15	-19
O=c1cc(NCc2ccccc2)[nH]c(=O)[nH]1	-10	0.3%	3	-0.5	-10	-1
CCOc1ccc(NC(=S)NN(C)C(=S)Nc2ccc(OCC)cc2)cc1	8.9	0.9%	-25	0.6	29	?
C#CCOCCOCCOCCNc1nc(N2CCN(C(=O)C(Cc3ccc(O)cc3)n3cc(C(N)CC(C)C)nn3)CC2)nc(N2CCN(C(=O)C(Cc3ccc(O)cc3)n3cc(C(N)C(C)CC)nn3)CC2)n1 (stereo not given)	-5.5	0.0%	-23	-0.5	-17	-19
COc1ccc(C=CC(=O)c2c(OC)cc(OC)c(OC)c2O)cc1	8.9	0.2%	2	-0.2	-40	-8
COc1ccc(NS(=O)(=O)c2cccc(C(=O)OCC(=O)N3CCN(c4ccc(OC)cc4)CC3)c2)cc1	4.1	0.4%	-10	-0.5	4	-25
O=C1CC(c2cccc(Br)c2)c2cc3c(cc2N1)CCC3 (stereo not given)	2.3	8.6%[38.3 µM]	0	4.5	2	-7
N#C/C(=C\c1ccccc1)C(=O)Nc1nncs1	-0.7	1.1%	0	0.6	-1	5
Cc1ccc(C(NC(=O)c2ccccc2S(C)(=O)=O)c2ccccc2)cc1 (stereo not given)	-0.9	0.1%	-24	-0.1	-5	-7
CCc1nnc(NS(=O)(=O)c2ccc(NC(=S)NC(=O)/C=C/c3ccc(C(C)C)cc3)cc2)s1	1.7	14%[38.3 µM]	-8	1.2	-2	-5
CCOC(=O)/C(=N\Nc1ncnc2ccccc12)c1ccc(OC)cc1	-0.7	1.5%	-29	0.4	-5	-24
O=C(CCNC(=O)c1ccc(Br)cc1)NCC(c1ccco1)N1CCCCC1 (stereo not given)	-3.1	-0.2%	/	0.2	-20	6
Oc1ccc(-c2nnc(SCc3ccccc3)o2)cc1	-0.2	-1.3%	-3	3.4	-5	1
Cc1cnc(NC(=O)CCNC(=O)c2ccccc2Cl)s1	-1.3	-0.1%	3	0.1	-8	8
CCOC(=O)C1(CC2CCCCO2)CCN(C(=O)Nc2ccccc2SC)CC1 (stereo not given)	-3.0	0.6%	-1	0.9	0	4
Cc1cc(=O)oc2cc(O[C@@H]3O[C@H](CO)[C@@H](O)[C@H](O)[C@H]3O)ccc12	-6.9	3.4%	/	-0.5	-2	-4
O=C(NC1CC1)C1CC(=O)N(C2CCCCC2)C1 (stereo not given)	0.6	3.6%[38.3 µM]	4	0.2	-18	4
Cc1ccccc1N=CC=C1OC(C)(C)C(C)(C)O1	0.4	4.7%	4	0.2	1	1
Cc1ccc(S(=O)(=O)/N=C(\N)Nc2nc(C)c3cc(C)c(C)cc3n2)cc1	-1.5	-13%[38.3 µM]	-2	1.8	0	-4
O=C(NNC(=O)C1CCCN(c2ncccn2)C1)c1ccncc1 (stereo not given)	-3.3	0.8%	/	0.3	-5	-2
COc1ccc(OCCOc2ccc(/C=C3\C(=N)N4N=C(C)SC4=NC3=O)cc2)cc1	-0.4	3.1%	/	-1.4	-1	0
Nc1ccc(C#Cc2ccc3c(=O)c4ccccc4oc3c2)cc1	-2.4	5.1%	6	8.0	-9	35
COc1ccccc1/C=C/C(=O)NCc1ccccn1	-1.3	0.6%	2	-0.3	-5	8
CCCCOC(=O)N1CCOCCOCCN(C(=O)OCCCC)CCOCCOCC1	-1.5	0.5%	1	-0.5	20	7

# (listing goes on)
SMILES	D2 ag	PINK1 modulator	CtBP-E1A blk	TRPML1 ag	D2 potentiator	Six1-Eya2 inh
Cc1ccc(-c2ccc(CN3C(CC(C)C)C(=O)N(Cc4cn(CCC5OCCCO5)nn4)CCS3(=O)=O)cc2)cc1 (stereo not given)	0.3	2.0%	0	0.6	-7	-8
Cc1occc1C(=O)NNC(=S)NCC(C)C	-1.5	5.8%[38.3 µM]	5	-0.3	-2	1
CCN(CC)c1ccc(CNC(=O)C/C(C)=N/NC(=O)COc2ccc(C)cc2Br)cc1	-4.1	2.2%	-22	0.7	-1	-17
CONC(=O)C1CCN(C(=O)OCc2ccccc2)CC1	-1.2	0.6%	-4	1.5	-1	19
Cc1cc(-c2cccs2)c2c(N)c(C(=O)c3ccc4c(c3)OCO4)sc2n1	-12	?	-2	5.1	22	15
CC(Sc1nc2ncc(Cl)cc2[nH]1)C(=O)c1c(N)n(C)c(=O)n(C)c1=O (stereo not given)	-1.1	2.1%	-11	0.5	-21	-7
COc1cc(/C=N/NC(=O)COc2ccc(C)cc2)ccc1OC(=O)c1cccs1	-1.9	2.6%	3	4.9	7	-20
CC(C)CC1C(=O)N(Cc2cn(CC3CCCCC3)nn2)CCS(=O)(=O)N1Cc1ccc(-c2ccc(Cl)cc2)cc1 (stereo not given)	-1.5	0.9%	-5	/	/	-4
O=C(/C=C/c1ccccc1)NCCSCc1ccccc1Cl	1.0	1.5%	0	2.5	-16	-1
Cc1cccc(C(=O)Nc2c(C(=O)N3CCN(C)CC3)cnn2-c2ccccc2)c1	1.8	-0.6%	2	-0.5	-35	1
Cn1cccc1Cc1nnc(SCC(=O)Nc2ccc3c(c2)OCO3)n1-c1ccc(F)cc1	-1.9	0.4%	-26	0.1	0	-15
O=C(Nc1ccc(C(=O)N2CCCC2)cc1)c1ccccc1[N+](=O)[O-]	-4.1	-0.5%	12	-0.9	-1	1
COc1ccccc1CCN=C(N)NS(=O)(=O)c1ccc(C)c(C)c1	-0.9	-0.4%	-4	3.6	-12	-1
OCC1(O)OC[C@@H](O)[C@H]1O (stereo not given in full)	-1.6	2.1%	0	-0.1	-4	6
CC(C)NC(=O)N(C)C[C@@H]1OCc2cnnn2CCCC(=O)N([C@H](C)CO)C[C@H]1C	-1.0	1.2%	-25	/	/	2
CCCCOC(=O)CSc1nc2c(cc1C#N)C(=O)CC(C)(C)C2	-3.6	1.8%	1	0.0	0	4
CCCCC[C@H](C)N1C[C@H](COCc2ccccc2)Oc2cc(N3CCC[C@@H]3COC)ccc2S1(=O)=O	/	1.1%	2	0.1	/	3
CC1CN(C(=O)Nc2ccc(F)cc2)C2(CCCCCC2)O1 (stereo not given)	-3.7	-0.7%	/	0.0	-5	-3
COc1ccc(NC(=O)CSc2nc3sc(C)cc3c(=O)n2C)c(OC)c1	-3.6	1.8%	-8	0.0	1	-23
COc1ccc(C2=NS(=O)(=O)N(C)C(C(=O)N3CCc4ccccc4C3)=C2)cc1OC	3.5	1.1%	0	0.2	2	-4

# Single records, as listed above. Order of values: D2 ag, PINK1 modulator, CtBP-E1A blk, TRPML1 ag, D2 potentiator, Six1-Eya2 inh
# Cc1ccc(-c2ccc(CN3C(CC(C)C)C(=O)N(Cc4cn(CCC5OCCCO5)nn4)CCS3(=O)=O)cc2)cc1 (stereo not given) as listed: 0.3, 2.0%, 0, 0.6, -7, -8
# CCN(CC)c1ccc(CNC(=O)C/C(C)=N/NC(=O)COc2ccc(C)cc2Br)cc1 as listed: -4.1, 2.2%, -22, 0.7, -1, -17
# COc1ccc(C2=NS(=O)(=O)N(C)C(C(=O)N3CCc4ccccc4C3)=C2)cc1OC as listed: 3.5, 1.1%, 0, 0.2, 2, -4
